# From PubChem BioAssay
# NPR1 antag = human Npr1 receptor antagonism | P16066 | HEK293 hNpr1 GloSensor cGMP, ANP-stimulated luminescence | Potency, µM (top dose mostly 46.3 µM), for the others: top-dose activity change, negative = inhibition, actives largely listed as inhibitors | actives 1.6% (n = 76,000); active = well fitted inhibition curve with a large enough effect; inconclusive = small, poorly fitted or top-dose-only effect; inactive = no such curve, though single readings can be large or run the other way;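 also: nearly all actives have a fitted effect of over 60% in size; nearly all hits also lower the signal before the agonist is added; a reference antagonist and vehicle were the controls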
# Target sequence (P16066 whole entry, looked up): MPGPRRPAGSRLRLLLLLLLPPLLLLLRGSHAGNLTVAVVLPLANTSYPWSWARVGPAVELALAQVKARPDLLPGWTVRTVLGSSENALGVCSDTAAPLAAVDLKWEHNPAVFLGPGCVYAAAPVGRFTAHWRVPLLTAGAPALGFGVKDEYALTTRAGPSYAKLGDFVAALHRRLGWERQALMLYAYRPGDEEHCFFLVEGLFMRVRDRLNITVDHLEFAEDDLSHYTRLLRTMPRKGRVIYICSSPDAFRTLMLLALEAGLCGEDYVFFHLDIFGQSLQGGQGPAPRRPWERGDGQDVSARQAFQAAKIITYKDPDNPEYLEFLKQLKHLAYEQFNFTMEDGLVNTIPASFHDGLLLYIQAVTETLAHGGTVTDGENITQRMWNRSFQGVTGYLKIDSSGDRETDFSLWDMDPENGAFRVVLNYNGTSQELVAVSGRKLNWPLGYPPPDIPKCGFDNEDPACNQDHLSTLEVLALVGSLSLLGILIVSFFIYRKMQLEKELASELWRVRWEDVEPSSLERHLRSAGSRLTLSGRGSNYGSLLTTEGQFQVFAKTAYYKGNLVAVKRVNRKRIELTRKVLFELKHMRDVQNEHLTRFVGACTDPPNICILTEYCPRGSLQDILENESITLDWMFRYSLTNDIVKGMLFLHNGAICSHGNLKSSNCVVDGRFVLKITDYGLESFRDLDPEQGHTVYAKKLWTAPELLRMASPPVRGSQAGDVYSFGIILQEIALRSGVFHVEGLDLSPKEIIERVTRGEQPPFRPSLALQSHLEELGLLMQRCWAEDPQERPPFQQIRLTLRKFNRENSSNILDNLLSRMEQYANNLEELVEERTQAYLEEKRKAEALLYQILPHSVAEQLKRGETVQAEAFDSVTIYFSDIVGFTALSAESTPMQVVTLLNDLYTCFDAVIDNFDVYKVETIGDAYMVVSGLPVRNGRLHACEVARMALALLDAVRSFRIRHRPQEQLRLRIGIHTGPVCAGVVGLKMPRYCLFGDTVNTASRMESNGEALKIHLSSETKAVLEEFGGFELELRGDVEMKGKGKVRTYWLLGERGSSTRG
#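 HEK293 cells stably expressing human Npr1 and cGMP GloSensor pGS-40F, loaded 2 h with 2% GloSensor reagent, given compound 30 min at room temperature. Luminescence read before and 20 min after 0.1 nM hNppA.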
# An asterisk follows results filed as active; ? = inconclusive; & = joins results of further samples; [ ] = another dose, or the depositor's remark. % is scaled to controls: 0 for no effect and ±100 for the full control effect; potency is read from the fitted curve at half-maximal effect.
NPR1 antag,mol
4%[70.6 µM],COc1ccc(-c2ccc3ncc(Nc4cnccn4)n3n2)cc1OC
-3%[70.6 µM],O=C(O)CCn1ncc2cc(OC3CCN(C(=O)OCc4ccccc4)CC3)ccc21
1%[70.6 µM],O=C(Nc1ccc(F)cc1)N1CCN2C(=O)N(C3CCOCC3)C[C@H]2C1
-17%,COc1ccc(-c2cc(N3CCCC(NC(=O)c4cc(C)cc(C)c4)C3)n[nH]2)cc1 (configuration not stated)
0%,Cc1oc(-c2cccc(Oc3ccccc3)c2)nc1CN1CCC(C#N)CC1
1%,CCC1CCCCN1CCCNC(=O)CCc1cc2cc(OC)ccc2[nH]c1=O (configuration not stated)
-1%,O=C(NCc1cccnc1)C1CC(=O)N(c2n[nH]c3ccccc23)C1 (configuration not stated)
-3%,CCOc1ccccc1CN1CCCC(c2nc(-c3cccnc3)no2)CCNC(=O)CC1 (configuration not stated)
?,CCc1ccc(CNC(=O)c2cc3n(n2)CC(c2ccc(Cl)cc2)OC3)cc1 (configuration not stated)
-1%,O=C(CCc1nnn2c1CNCC2)N1CCOCC1
3%,Cc1cn2nnc(C(=O)N3CCC(C(=O)Nc4ccc(Cl)cc4)CC3)c2c(=O)[nH]1
-5%[70.6 µM],CN1C[C@@H](F)[C@@H](OCc2nc3ccc(C(F)(F)F)cc3[nH]2)C1
-3%,Cc1noc(-c2nnn3c2COC(c2ccc(F)cc2)C3)n1 (configuration not stated)
-4%,O=C(Cc1ccc(F)cc1)N1CCC2(CC1)NC(=O)N(c1ccc(F)cc1)N2
6%,Cc1ccc(C(=O)N2CCC3(CC2)COc2ccccc2CN3)cc1
-4%[70.6 µM],O=C(NC1CCOCC1)c1ccnc(-c2nnc3ccc(Nc4ccccc4)nn23)c1
-3%,Cn1c2c(c3ccccc31)CN(C(=O)Nc1ccccc1F)CC2
-3%,COc1ccc(Cl)cc1NC(=O)CCC1CCCN(C(=O)CN2CCOC2=O)C1 (configuration not stated)
1%,COC(=O)[C@]1(C)N[C@H](c2cccnc2N2CCOCC2)[C@@H]2C(=O)N(C)C(=O)[C@@H]21
1%,COc1ccccc1C(=O)N1CCC(Oc2ccc(C(=O)N3CCOCC3)cn2)CC1
1%,O=C(c1cccs1)N1CCN(C(=O)c2nnn3c2COC(c2ccc(Cl)cc2)C3)CC1 (configuration not stated)
?,Cc1ncc2n1C(=O)N(C1CCN(Cc3ccc(OC(F)(F)F)cc3)CC1)C2
7%[70.6 µM],COCCNC(=O)c1nc(-c2ccccc2)c2ccccn12
1%[70.6 µM],CN1CCN(c2ccc3ncc(Nc4ccc(F)cc4)n3n2)CC1
-4%,CN(Cc1cc2n(n1)CCNC2)Cc1nc2ccsc2c(=O)[nH]1
-3%[70.6 µM],COc1ccc(CN2CCNc3cc(-c4ccnc(C)c4)ncc3C2)cc1
-2%,CS(=O)(=O)N1CCCC(C(=O)N2CCN(c3ccccc3F)CC2)CCNC(=O)CC1 (configuration not stated)
6%,Cc1nc(N2CCN(C(=O)Cc3ccccc3Cl)CC2)cc(C(F)(F)F)n1
-20%,COc1ccc(C(=O)Nc2nc3c(s2)C[C@@H]2[C@](C)(CO)[C@H](O)CC[C@@]2(C)[C@@H]3CC(=O)NCc2ccccc2)cc1
?,Cc1ccc(C(=O)N2CCN(C(=O)c3nnn4c3COC(c3ccc(Cl)cc3)C4)CC2)c(C)c1 (configuration not stated)
?,COc1ccc(C(=O)N[C@@H]2C=C[C@@H](c3c(C)nn(-c4ccc(C)c(Cl)c4)c3C)C2)cc1
-11%,Cc1nc2c(c(-c3ccc(O)cc3)n1)CN(Cc1ccc(F)cc1)CCC2
0%,O=C(Nc1nc2c(s1)CCCC2)C1CC(=O)N(c2n[nH]c3cccc(F)c23)C1 (configuration not stated)
10µM*,Cc1nc(-c2ccncc2)ncc1C(C)Nc1ncnc(C)c1C (configuration not stated)
4%,COc1ccc(-c2[nH]ncc2CN2CCCCCNC(=O)CC2c2ccccc2)cc1 (configuration not stated)
-16%[70.6 µM],COCCn1ccc2c(C3=CCOCC3)nc(-c3cccc4cn[nH]c34)cc21
1%[70.6 µM],O=C(Nc1ccccc1)N1CCN2C(=O)N(Cc3ccc(F)cc3)C[C@H]2C1
18%,COc1ccc(C(=O)NCc2nnc3ccc(-c4ccc(F)cc4)nn23)c(OC)c1
-3%,CN(CC1CCOCC1)C(=O)c1cccc(Cl)c1
0%[70.6 µM],COc1cccc(-c2cc(C(=O)NCCc3cnc[nH]3)c3c(c2)N(C)CCO3)c1OC
-11%,CCCc1ccc(S(=O)(=O)N2CCc3nc4cc[nH]n4c(=O)c3C2)cc1
-16%,CCc1cccc2c(C(CC(=O)NCc3ccco3)c3ccc(OC)c(OC)c3)c[nH]c12 (configuration not stated)
-6%,CCc1nc(-c2c3n(c(=O)n(CC(=O)Nc4ccccc4CC)c2=O)CCCCC3)no1
?,CC(=O)N1C[C@@H](C(=O)NCc2cccs2)[C@H](c2nc(C)no2)C1
-12%,O=C1CC(c2ccccc2)N(C(=O)Nc2ccccc2)CCCCCCN1 (configuration not stated)
4%,CCCN(C)c1nccnc1OC1CCN(C(=O)C2CCOCC2)C1 (configuration not stated)
8%,Cc1c(C(C)NC(=O)CN2CCOC2=O)cnn1-c1ccc(F)cc1F (configuration not stated)
5%,CCCN(CC1CC1)C(=O)C1CCN(C(=O)N2CC3CC(C2)[C@H]2CCCC(=O)N2C3)CC1 (some centres not stated)
-9%,CC(C)CC(=O)NCC(=O)N1CCCCCCNC(=O)CC1c1ccccc1 (configuration not stated)
3%[70.6 µM],O=C(C1CCCCC1)N1CC[C@H](c2nnc(-c3ccncc3)o2)C1
-17%,Cc1ccc(CN2CCCC(c3nc(C(C)C)no3)CCNC(=O)CC2)s1 (configuration not stated)
0%&2%[70.6 µM],O=C(c1ccccc1)N1CCC(N2CCCNC2=O)CC1
1%,COc1ccccc1CN1C(=O)O[C@@H]2CN(C(=O)NC3CCCCC3)C[C@@H]21
28%,Cc1cc(C)n(CCNC(=O)c2cn(CCN3CCNCC3)nn2)c(=O)n1
1%[70.6 µM],O=C(O)c1cc(C[C@H]2CNCC[C@H]2CC(=O)N2CCCCC2)no1
-1%[70.6 µM],COCC(=O)N1CC[C@H](c2nnc(C(C)(C)C)o2)C1
4%,COc1ccc(C(=O)N[C@@H]2CCC[C@@H]2C(=O)NCc2cccc(F)c2)cn1
1%[70.6 µM],CC(=O)N1CCC(NC[C@H]2COCc3nc4cc(C)ccc4n32)CC1
2%,O=C1NCCCC12CCN(Cc1cccc(C(F)(F)F)c1F)C2 (configuration not stated)
-2%[70.6 µM],Cc1noc2ccc(-c3ccccc3Oc3ccccc3)nc12

# Gathered by group, those above containing an aryl methoxy group (14)
NPR1 antag,mol
4%[70.6 µM],COc1ccc(-c2ccc3ncc(Nc4cnccn4)n3n2)cc1OC
-17%,COc1ccc(-c2cc(N3CCCC(NC(=O)c4cc(C)cc(C)c4)C3)n[nH]2)cc1 (configuration not stated)
1%,CCC1CCCCN1CCCNC(=O)CCc1cc2cc(OC)ccc2[nH]c1=O (configuration not stated)
-3%,COc1ccc(Cl)cc1NC(=O)CCC1CCCN(C(=O)CN2CCOC2=O)C1 (configuration not stated)
1%,COc1ccccc1C(=O)N1CCC(Oc2ccc(C(=O)N3CCOCC3)cn2)CC1
-3%[70.6 µM],COc1ccc(CN2CCNc3cc(-c4ccnc(C)c4)ncc3C2)cc1
-20%,COc1ccc(C(=O)Nc2nc3c(s2)C[C@@H]2[C@](C)(CO)[C@H](O)CC[C@@]2(C)[C@@H]3CC(=O)NCc2ccccc2)cc1
?,COc1ccc(C(=O)N[C@@H]2C=C[C@@H](c3c(C)nn(-c4ccc(C)c(Cl)c4)c3C)C2)cc1
4%,COc1ccc(-c2[nH]ncc2CN2CCCCCNC(=O)CC2c2ccccc2)cc1 (configuration not stated)
18%,COc1ccc(C(=O)NCc2nnc3ccc(-c4ccc(F)cc4)nn23)c(OC)c1
0%[70.6 µM],COc1cccc(-c2cc(C(=O)NCCc3cnc[nH]3)c3c(c2)N(C)CCO3)c1OC
-16%,CCc1cccc2c(C(CC(=O)NCc3ccco3)c3ccc(OC)c(OC)c3)c[nH]c12 (configuration not stated)
1%,COc1ccccc1CN1C(=O)O[C@@H]2CN(C(=O)NC3CCCCC3)C[C@@H]21
4%,COc1ccc(C(=O)N[C@@H]2CCC[C@@H]2C(=O)NCc2cccc(F)c2)cn1

# (list continues)
NPR1 antag,mol
1%,O=C(O)[C@@H]1CN(Cc2ccccc2)C[C@@H]1C(=O)N1CCc2ccccc21
-3%,CCc1noc([C@@H]2CC(F)(F)CN2C(=O)c2cocn2)n1
-11%[70.6 µM],Cc1ccc(CN[C@@H]2CO[C@H](CNC(=O)Nc3ccccc3)[C@H]2O)cc1
0%,Cc1noc([C@H]2CCN(Cc3scnc3C)C[C@H]2NC(=O)C2CC2)n1
-3%,CN1[C@H](CO)C[C@H](CNC(=O)c2cn(CCN)nn2)[C@@H]1c1ccccc1F
5%[70.6 µM],CCN(CC)C(=O)[C@@H]1CCC[C@@H](NC2CCOCC2)CN(C)C(=O)C1
-1%,CC(=O)N1CCN(c2cc(-c3noc([C@@H]4CCCN4Cc4ccc(N(C)C)cc4)n3)ccn2)CC1
-2%,CCN1c2cc(C(=O)Nc3ccc(Cl)c(Cl)c3)ccc2C(=O)N2CCCCCC21 (configuration not stated)
0%,O=C(Nc1cccc2ccccc12)N[C@H]1CO[C@H]2[C@@H]1OC[C@@H]2Nc1nccc(-c2cccs2)n1
-12%,O=C(NCc1ccco1)c1ccc2c(c1)N(C(=O)c1ccc(F)cc1)CC2
1%[70.6 µM],CC(=O)N1CC[C@H](c2nc3ccc(C#N)cc3[nH]2)C1
2%,CCc1nc(NCCc2cc(OC)cc(OC)c2)c2cnn(C)c2n1
2%,CCOCC(=O)N1C[C@@H]2CCCN3CCC[C@@H]([C@H]23)[C@H]1CCCC(=O)NC
0%,CCN1c2cc(C(=O)N3CCCCC3)ccc2C(=O)N2CCCCCC21 (configuration not stated)
-3%,CN1C(=O)CCC2(CNC(=O)C3CCCC3)CCCC=C12 (configuration not stated)
2%,COc1ccc(-c2noc(-c3nc(C)no3)n2)c(OC)c1
-27%,Cc1ccccc1S(=O)(=O)N1CCCC(CCC(=O)NCCN(C)C2CCCCC2)C1 (configuration not stated)
3%,O=C1Nc2ccccc2C2(CCN(S(=O)(=O)c3cccc(C(F)(F)F)c3)C2)O1 (configuration not stated)
-26%,CCN1c2cc(C(=O)Nc3cccc(C(=O)OC)c3)ccc2C(=O)N2CCCCCC21 (configuration not stated)
?,CCCN(C)C(=O)c1csc(N2CCN(c3cccc(Cl)c3)CC2)n1
-2%,CCCCc1ccc(NC(=O)CN2C(=O)NC(c3ccccc3OCC)C3=C2COC3=O)cc1 (configuration not stated)
-1%,O=C(NCCC1CCN(C(=O)Nc2ccccc2)CC1)c1ccccc1F
?,O=C(Nc1cc(F)cc(F)c1)c1cnc(-c2ccc(F)cc2)nc1-c1ccncc1
-18%,COc1ccccc1C(=O)N1CCC(n2cc(-c3nc(-c4ccccc4)no3)nn2)CC1
2%,Cc1c(C#N)c2ccccc2n1CC(=O)NC1CCOC2(CCOCC2)C1 (configuration not stated)
1%,CCc1ccccc1NC(=O)N1C[C@@H](F)C[C@H]1C(=O)N1CCc2ccccc2C1
-29%,Cc1cccc(CN2CCCC3(CCN(c4cc(C)c5ccccc5n4)C3)C2=O)c1 (configuration not stated)
-1%,Cc1ccc(CNC(=O)C2CCN(C(=O)c3nnn4c3COC(c3ccc(C)cc3)C4)CC2)cc1 (configuration not stated)
-18%,COc1cccc(CNC(=O)c2cc(-c3ccncc3)cn2C)c1OC
-23%[70.6 µM],OC(c1ccccc1)c1nc(Nc2ccc3c(c2)OCO3)n[nH]1 (configuration not stated)
6%,O=[S+]([O-])(c1cccs1)N1CCCN(c2nc3ncccc3o2)CC1
4%[70.6 µM],CC(C)NC(=O)Nc1ccc([C@H]2OCC(=O)N(C)[C@@H]2CO)cc1
1%,CCCCS(=O)(=O)N1CCC(C2CCNC2)CC1 (configuration not stated)
-2%,COc1ccccc1Oc1ncccc1CNC(=O)c1cccnc1C
1%,CCOc1ccc(CC(=O)N2CCC(Cc3nc(-c4cnccn4)no3)CC2)cc1
0%,Cc1cc(=O)oc2cc(CN(C)CC(C)N3CCOCC3)ccc12 (configuration not stated)
-1%,O=C(NC1CCc2n[nH]c(=O)n2CC1)c1cncc(Br)c1 (configuration not stated)
?,FC(F)(F)c1ccc(-c2noc([C@@H]3Cc4nc[nH]c4CN3Cc3cc4ccccc4o3)n2)cc1
-2%,COc1ccc(C)cc1NC(=O)c1c(OC)cc(=O)n2c1CCCC2
3%[70.6 µM],CCCS(=O)(=O)N1CC[C@@H](CC(=O)O)[C@@H](CC2=NCCc3cc(OC)ccc32)C1
-28%[70.6 µM],c1cc(-c2cc(-c3ccncc3)c3cncn3c2)c2cc[nH]c2c1
3%,COc1ccccc1C(=O)Nc1cccc(-c2nnc3n2CCCC3)c1
8%,O=C(C[C@H]1NC(=O)c2ccccc2NC1=O)Nc1ccc(N2CCOCC2)cc1
-1%,C=CCNC(=O)N[C@H]1C[C@H]2C(=O)Nc3ccc(/C=C/c4ccc(OC)cc4)cc3C(=O)N2C1
0%,OC1(c2csc(CN3CCOCC3)n2)CCN(Cc2ccccc2C(F)(F)F)CC1
-2%,CCN1c2cc(C(=O)NCc3ccc(C(C)C)cc3)ccc2C(=O)N2CCCCCC21 (configuration not stated)
0%,COCc1noc([C@@H]2CN(S(=O)(=O)c3ccc(C#N)cc3)C[C@H]2C(N)=O)n1
-2%,COc1cccc(CN2CCC3(CC2)C(OC)CN3c2cccc(F)c2)n1 (configuration not stated)
-5%,CCc1nc(-c2c3n(c(=O)n(CC(=O)NCCc4ccccc4)c2=O)CCCC3)no1

# Not all compounds are listed. The share of hits here may be higher or lower than overall.
